# High-throughput results from PubChem BioAssay.
# MT1-MMP act inh = blockers of MT1-MMP proenzyme processing, primary screen, HT1080 RFP-PRO-GFP cells, GFP/RFP fluorescence; GFP/RFP ratio fluorescence, overnight; percent of plate control window, DMSO zero; actives 0.061% (n = 360,000); GFP/RFP ratio change, % at 20 µM; AID 651647, 2012;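 active = GFP/RFP ratio change of at least 30% with cell ATP level not reduced by more than half and red fluorescence within 50% of control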; also: strong numbers were not always called active
#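 Material – HT1080 RFP-PRO-GFP cells · Control set – DMSO wells and RFP-L50D-GFP cells · Incubation – overnight cell settling, then overnight compound exposure, 37 °C, 5% CO2 · Compound dosing – single-point 20 µM compound, 1% DMSO · Read-out – GFP/RFP fluorescence ratio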
# eIF4H inh = human eIF4H binding inhibitors, primary screen, translation initiation inhibitor project, biochemical, uHTS, fluorescence polarization. Eukaryotic translation initiation factor 4H (Homo sapiens), Q15056. eIF4H fluorescence polarization binding assay. inhibition, % at 35 µM. actives 0.94% (n = 290,000). AID 2012, 2009;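 active = 50% or more with normal probe brightness, or confirmed in later tests; about a fifth of its hits are not listed in these tables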;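 also: calls also rest on retests at 20 µM and on dose response follow-up; 0% = protein and probe with vehicle and 100% = probe without protein; strong numbers were not always called active; many hits fall short of the cut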
# UUG fidelity = modulators of yeast start codon fidelity, primary screen, whole organism, S. cerevisiae, single point, plate reader | actives 0.13% (n = 350,000) | AID 602363, 2012 | activity score, % at 18.7 µM | S. cerevisiae UUG-firefly luciferase reporter, luminescence/redox ratio;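 active = replicate mean at a twofold rise or more, about +100% in these data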;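 also: firefly luciferase made from a UUG start codon reports start codon fidelity; reporter light over untreated wells divided by growth signal over untreated wells; some hits fall short of that in this replicate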
# PABP polyA inh = PABP poly(A) RNA binding inhibitors, primary screen, biochemical, fluorescence polarization, uHTS; inhibition, % at 35 µM; actives 1% (n = 290,000); AID 2014, 2009;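 active = 50% or more with normal probe brightness, or confirmed in later tests; about a fifth of its hits are not listed in these tables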;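 also: calls also rest on retests at 20 µM and on dose response follow-up; controls were probe without protein and protein plus probe with vehicle; some compounds called inactive have numbers as strong as hits; many hits fall short of the cut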
# CSC inhib = cancer stem cell viability inhibitors, primary screen, luminescence; cancer stem cell-like cells viability; inhibition, % at 7.5 µM; actives 1.1% (n = 300,000);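 active = mean at 75% or more and at least half the replicates too; tested in HMLE shEcad cells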;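 also: 0% = median of negative and 100% = median of positive control wells; the first replicate is given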
# Rce1 inhib = yeast Rce1p protease inhibitors, primary screen, biochemical, fluorescence, cell-free homogeneous. calls only. yeast membranes, quenched prenylated peptide cleavage fluorescence. actives 0.27% (n = 290,000);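 active = fall in fluorescence gain of 50% or more versus controls, with final raw signal at or below 3038400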;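 also: plate controls were neutral control wells for no effect and wells lacking membranes for full effect; tested at 10 µM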
# Target sequence (Q03530 whole entry, looked up): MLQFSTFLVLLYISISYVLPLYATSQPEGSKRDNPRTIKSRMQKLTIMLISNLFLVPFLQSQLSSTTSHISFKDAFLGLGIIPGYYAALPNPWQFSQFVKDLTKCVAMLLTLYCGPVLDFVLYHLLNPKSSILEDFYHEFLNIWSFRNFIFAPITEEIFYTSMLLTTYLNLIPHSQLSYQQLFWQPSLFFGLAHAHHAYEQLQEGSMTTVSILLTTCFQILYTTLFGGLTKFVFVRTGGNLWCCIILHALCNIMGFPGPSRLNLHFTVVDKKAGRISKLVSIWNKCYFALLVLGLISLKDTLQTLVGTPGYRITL
# Env fusion inh = inhibitors of HIV-1 Env-driven cell-cell fusion, primary screen, HeLa-JRFL effector, CEM21 target cells, luciferase | actives 1.1% (n = 360,000) | inhibition, % at 12.3 µM;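 active = mean replicate inhibition score of at least 50 and every replicate individually at or above 50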;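 also: 0% = plate neutral controls and 100% = maraviroc near 300 nM; one replicate is shown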
# eIF4H inh retest = further read-out of eIF4H inh, marked with its call; inhibition, %; compound at 20 µM; confirmation average;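 mean of two retest wells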
# PABP polyA inh retest = second read-out of PABP polyA inh, no call of its own (marks repeat the call); inhibition, %; compound at 20 µM; confirmation repeats;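 mean of two retest wells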
# MT1-MMP act inh RFP = recorded beside MT1-MMP act inh, whose call it bears; RFP signal change, %; measured here: RFP expression control read;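 0 = vehicle wells; hits needed this value within 50% of zero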
# Numbers without * were called inactive; i = inactive; nt = not tested or not shown.
SMILES,MT1-MMP act inh,MT1-MMP act inh RFP,eIF4H inh,UUG fidelity,PABP polyA inh,CSC inhib,Rce1 inhib,Env fusion inh,others
COc1ccccc1NC(=O)CS(=O)(=O)c1cn(CC(=O)N(C(C)C)C(C)C)c2ccccc12,-3,-1,0,-16,2,0,i,0,
N#CC1(c2ccccc2)CCCN1C(=O)c1ccccc1Br (stereo unspecified),4,5,13,23,10,-3,i,nt,
CCCCCn1nc(C)c(/C=N/NC(=O)c2ccoc2C)c1C,-1,0,-1,-20,6,-11,i,nt,
S=c1[nH]nc(Cc2cccc3ccccc23)n1-c1ccccc1,nt,nt,3,-13,-3,nt,i,nt,
CCOC(=O)c1ccccc1NC(=O)C1CC(=O)N(C2CCCCC2)C1 (stereo unspecified),0,3,3,0,12,1,i,2,
Cc1cc(C(=O)OCn2nnc3ccccc3c2=O)c(C)o1,-6,-2,-12,nt,-12,nt,i,20,
Cn1c(=O)n(C)c2cc(S(=O)(=O)NCCc3ccccc3)ccc21,5,-4,-5,-10,-7,5,i,nt,
O=C(CSc1ccc([N+](=O)[O-])cc1)Nc1cccc(S(=O)(=O)N2CCOCC2)c1,4,-4,nt,-6,nt,-6,nt,3,
CC(C)CC(OC(=O)c1ccc(Cl)nc1)C(=O)NC1CCCC1 (stereo unspecified),3,3,4,-8,8,-5,i,-6,
CCOc1cc(CNc2ccccc2)cc(Br)c1OCc1ccc(F)cc1,-4,-5,-8,-15,8,nt,i,30,
O=C(NCc1ccco1)c1cc2n(n1)C(C(F)(F)F)CC(c1ccc(F)cc1)N2 (stereo unspecified),2,-2,-3,-14,11,-5,i,-16,
Cc1ccc(/C=C2\CCC(C3CCCC3)C2=O)cc1 (stereo unspecified),0,0,-3,-45,-3,-2,i,-18,
COc1ccc(-c2ccc(C(=O)NCc3ccc(N4CCN(C)CC4)cc3)c3occc23)c(C)c1,11,-4,nt,-13,nt,nt,nt,-24,
COc1ccc(S(=O)(=O)n2oc(=O)cc2-c2ccccc2)cc1OC,-26,2,-4,-16,10,10,i,-10,
NC(=O)C1(c2ccccc2)CCCN1C(=O)c1ccc(Br)cc1 (stereo unspecified),-1,0,82,-12,-16,-16,i,10,eIF4H inh retest=-3;PABP polyA inh retest=11
Cc1ccccc1OCc1nc2ccccc2c(=O)n1/N=C/c1cccc([N+](=O)[O-])c1,3,4,-4,-1,-5,6,i,9,
CNC(=O)C1CCN(S(=O)(=O)c2c(C)noc2/C=C/c2cccc(C)c2)CC1,2,1,-7,-17,-1,-13,i,3,
CS(=O)(=O)N1CCC(Oc2ccccc2C(=O)N2CCNC(=O)C2)CC1,0,1,0,nt,10,-12,i,1,
O=C(NCCc1ccc(Cl)cc1Cl)c1cccnc1,15,-4,-6,-18,-9,2,i,3,
N#Cc1ccc(-n2nnc3ccccc3c2=O)c([N+](=O)[O-])c1,8,4,nt,-4,nt,0,i,-31,
O=C(O)CC(NC(=O)Cc1ccccc1)c1cc([N+](=O)[O-])ccc1Cl (stereo unspecified),1,4,98,-12,-2,-2,i,11,eIF4H inh retest=1;PABP polyA inh retest=0
O=C(CSc1nc(-c2ccco2)cc(C(F)(F)F)n1)NC1CCCC1,-7,-13,-4,-17,-4,nt,i,nt,
CCCCC(=O)NC(c1ccccc1Cl)c1c(O)ccc2ccccc12 (stereo unspecified),-39,-24,-4,-6,-3,-12,i,-7,
O=C(NC1CCCC1)C1CCCN(S(=O)(=O)c2cccc3cccnc23)C1 (stereo unspecified),1,-2,-10,-3,-4,7,i,-13,
C/C(=N\Nc1nc(C(C)(C)C)cs1)c1ccc(O)cc1,2,-1,-4,-13,-6,13,i,-19,
COc1cc(Cl)c(CN2CCCC(CO)(Cc3ccccc3F)C2)cc1OC (stereo unspecified),-5,-8,-14,3,-20,19,i,4,
Cc1ccc(Cn2c(=O)c3c(nc4n3CCN4Cc3ccco3)n(C)c2=O)cc1,0,-4,5,2,12,8,i,-5,
O=C(OCC(=O)N1CCCCC1)c1cc2ccccc2cc1O,1,-2,-5,-1,-6,11,i,nt,
CCCCCCOC(=O)C1=C(C)NC(=O)NC1c1ccc(O)cc1 (stereo unspecified),-1,-6,-3,-4,5,8,i,nt,
Cc1cc(C)n2nc(SCC(=O)c3cc(C)n(CC4CCCO4)c3C)nc2n1 (stereo unspecified),1,-17,12,-9,17,8,i,-2,
Cc1c(N2C(=O)/C(=C/c3ccc(N(C)C)cc3)N(C)C2=S)c(=O)n(-c2ccccc2)n1C,-78,13,nt,44,nt,nt,nt,4,
CCCC(C)NC(=O)COC(=O)c1ccc(Cl)c(S(N)(=O)=O)c1 (stereo unspecified),1,4,8,nt,4,-7,i,nt,
COc1ccc(-c2c([C@H]3[C@H]4C=CC[C@@H](C)[C@@H]4C(=O)N3Cc3ccccc3)ccc3ccccc23)cc1,-10,-22,4,-1,-5,46,i,44,
O=C(Nc1cccc(Cl)c1)c1cc(N=Nc2ccc([N+](=O)[O-])cc2Cl)ccc1O,108,-36,81,-17,5.7*,128*,i,15,eIF4H inh retest=-6;PABP polyA inh retest=102*
O=C(NNc1cc(Cl)ccc1Cl)c1c(F)cccc1Cl,0,0,-6,nt,2,-1,i,-4,
COc1ccc(N2CCN(CC(=O)N3N=CCC3c3ccccc3)CC2)cc1 (stereo unspecified),-3,3,-1,-24,-8,-24,nt,10,
CC(=O)Nc1ccc(SCCC2CCCCN2C)cc1 (stereo unspecified),-3,2,-15,-13,-10,-3,i,-5,
CCCCCCCN1C(Nc2ccccc2)=NC[C@@H]1C,-5,0,nt,-13,nt,28,nt,11,
COc1ccc(CNC(=O)CN2c3ccccc3S(=O)(=O)c3ccccc32)cc1,-8,0,16,-2,-2,-10,i,5,
CCc1cc2ccc(OC)cc2nc1SCC(=O)NNC(=O)c1ccco1,-8,-4,10,nt,-2,-10,i,12,
O=C1NC2(CCCCC2)C(=O)N1c1cccc(Cl)c1,6,2,4,nt,12,-1,i,-1,
C/C(Cc1ccccc1)=N\NC(=O)CNC(=O)Cc1ccc(Cl)cc1,0,1,-8,-1,8,-6,i,11,
COc1ccc(OCCCn2ccnc2)cc1,1,3,5,-22,14,-16,i,1,
CCn1c(CNC(=O)c2ccc3c(c2)OCO3)nnc1SCC(=O)Nc1ccccc1F,-2,2,6,-5,-1,-8,nt,22,
O=C(COC(=O)C1CC1)Nc1ncc(Cl)cc1Cl,-4,1,nt,nt,nt,-13,i,-1,
COc1ccc(C(=O)N2CCNC(=O)C2CC(=O)Nc2cccc(Cl)c2Cl)cc1 (stereo unspecified),-1,4,-7,-16,-4,7,i,-22,
O=C(NCc1cccc(Cl)c1)C1CCC(=O)N(CC2CCCCC2)C1 (stereo unspecified),3,-3,8,19,16,6,i,13,
COc1ccc(NC(=S)N2CCC3CC2c2c(Cl)cccc23)c(OC)c1 (stereo unspecified),-2,-3,nt,1,nt,nt,nt,-499,
COc1ccc(-n2c(Cc3cc(=O)[nH]c(=O)[nH]3)nnc2SCC(=O)NC2CCCC2)cc1,0,5,30,-9,26,10,i,9,
CCc1ccccc1NC(=O)Nc1ccc2c(c1)OCO2,2,0,10,nt,-1,5,i,2,
COc1ccc(OC)c(NC(=O)CS(=O)(=O)c2cn(CC(=O)N3CCOCC3)c3ccccc23)c1,-5,-1,-2,8,4,nt,i,6,
C=CCn1c(O)c(N=NC(=O)CNC(=O)/C=C/c2ccco2)c2ccccc21,3,3,53,2,31,-3,i,nt,eIF4H inh retest=-1;PABP polyA inh retest=21
CNC(=O)c1ncnnc1N(C)C(=O)NCc1ccccc1,0,0,3,16,2,-10,i,-26,
O/N=C(\COc1ccccc1O)c1ccccc1,5,0,-6,nt,2,-4,i,nt,
Cn1c(=O)[nH]c(=O)c2c1nc(Br)n2CCCCSc1nc2ccccc2o1,-2,0,4,nt,-1,-8,i,nt,
COc1ccc(OC)c(C2CC(c3ccc(NS(C)(=O)=O)cc3)=NN2C(=O)c2ccccc2)c1 (stereo unspecified),2,3,-6,nt,40,-2,i,32,
COc1ccc(OC)c(NC(=O)C(=O)NNC(=O)COc2ccc(Br)cc2C)c1,4,2,1,nt,3,23,i,9,
O=C(Nc1ccccc1C(=O)NCc1ccc(Cl)cc1)c1ccco1,0,-3,-2,-14,3,10,i,nt,

# Copied from the listing (7 entries):
SMILES,MT1-MMP act inh,MT1-MMP act inh RFP,eIF4H inh,UUG fidelity,PABP polyA inh,CSC inhib,Rce1 inhib,Env fusion inh,others
C=CCn1c(O)c(N=NC(=O)CNC(=O)/C=C/c2ccco2)c2ccccc21,3,3,53,2,31,-3,i,nt,eIF4H inh retest=-1;PABP polyA inh retest=21
CNC(=O)c1ncnnc1N(C)C(=O)NCc1ccccc1,0,0,3,16,2,-10,i,-26,
O/N=C(\COc1ccccc1O)c1ccccc1,5,0,-6,nt,2,-4,i,nt,
Cn1c(=O)[nH]c(=O)c2c1nc(Br)n2CCCCSc1nc2ccccc2o1,-2,0,4,nt,-1,-8,i,nt,
COc1ccc(OC)c(C2CC(c3ccc(NS(C)(=O)=O)cc3)=NN2C(=O)c2ccccc2)c1 (stereo unspecified),2,3,-6,nt,40,-2,i,32,
COc1ccc(OC)c(NC(=O)C(=O)NNC(=O)COc2ccc(Br)cc2C)c1,4,2,1,nt,3,23,i,9,
O=C(Nc1ccccc1C(=O)NCc1ccc(Cl)cc1)c1ccco1,0,-3,-2,-14,3,10,i,nt,

# This is a random part of the collection (roughly 2.9% active in at least one column).
